Source: PubChem BioAssay
GIV Gai3 FP = inhibitors of GIV peptide binding to Galpha-i3, primary screen, biochemical, fluorescence polarization, FITC-GIV GBA peptide, rat Galphai3 | percent of control (FP), % (no concentration beside the values) | 90 min; hits give low values; scaled: aluminum fluoride 0%, vehicle 100% | AID 1224905, 2016 | 210,000 compounds, 0.42% hits | Guanine nucleotide-binding protein G(i) subunit alpha-3 (Rattus norvegicus), P08753;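 active = replicate mean at 85% of control or lower, very high polarization wells dropped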;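 note: wells of about 15 µL received 100 nL stock; the first replicate is given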
Target sequence (P08753 whole entry, looked up): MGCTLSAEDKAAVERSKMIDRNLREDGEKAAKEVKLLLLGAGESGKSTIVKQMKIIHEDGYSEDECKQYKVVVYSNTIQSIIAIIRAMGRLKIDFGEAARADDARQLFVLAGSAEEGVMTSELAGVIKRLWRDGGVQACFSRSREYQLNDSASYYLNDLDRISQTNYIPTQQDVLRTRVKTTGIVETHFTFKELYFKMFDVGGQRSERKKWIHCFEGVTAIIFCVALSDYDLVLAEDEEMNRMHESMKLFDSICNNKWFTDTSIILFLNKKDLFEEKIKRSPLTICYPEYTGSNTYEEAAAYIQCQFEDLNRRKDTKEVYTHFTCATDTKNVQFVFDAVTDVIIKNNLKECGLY
HCMV UL50-53 inh = inhibitors of HCMV UL50-UL53 interaction, biochemical, HTRF. normalized percent inhibition. inhibition, % (test concentration not listed). 190,000 compounds, 0.15% hits. AID 1918969, 2023;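 active = both replicates at 50% or more, plus weaker picks with an unusually low signal ratio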;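 note: stock transfer was 100 nL into about 20 µL; 0% = negative control wells and 100% = wells with untagged competitor protein; inactives centre near -12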
Sa growth inh = S. aureus growth inhibition at 42 and 30 °C, primary screen, LtaS inhibitor project, RN4220, two temperatures; OD600, 20 h, 42 °C; hits give low values; relative growth, % (test concentration not listed); 170,000 compounds, 0.53% hits; AID 720641, 2013;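 active = growth at 42 °C up to 50% and 20 or more points under that at 30 °C, or under 10% at both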;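 note: 300 nL library stock went into each well; scaled to the means of positive and negative controls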
Sa growth inh second temp = also measured in Sa growth inh; calls as there; relative growth, %; measured here: growth at 30 °C;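 optical density after 20 h as mean of two plates; 100% = untreated growth and lower means inhibition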
The depositor's hits bear a star; / = not tested or not shown; & = joins results of further samples.

Structure	GIV Gai3 FP	HCMV UL50-53 inh	Sa growth inh	Sa growth inh second temp
C=CCn1c(Br)nc2c1c(=O)n(C)c(=O)n2C	96	-38	95	88
Cc1ccc(-n2ncc(C(=O)Nc3ccc(C)c(F)c3)c2C2CCN(C(=O)OC(C)(C)C)CC2)cc1C	114	/	115	100
CCCCNC(=O)Cc1c(C)nc2nc(CCC)nn2c1C	100	-15	/	/
Cc1cccc(-c2cc(N3CCN(S(C)(=O)=O)CC3)ncn2)c1	103	26	/	/
O=C(NCCCN1CCOCC1)C1CC(=O)N(c2ccccc2)C1 (stereo unspecified)	97	-4	106	92
COc1ccc(-c2c(C(F)(F)F)oc3c(CN4CCOCC4)c(O)ccc3c2=O)cc1OC	97	-22	/	/
CCOC(=O)C1=C(N)OC2=C(C(=O)CC(c3ccccc3)C2)C1c1ccc2c(c1)OCO2 (stereo unspecified)	104	-18	/	/
CCOC(=O)Cn1cc2c(c1-c1ccc(Cl)cc1)c(=O)n(C)c(=O)n2C	106	-9	101	88
O=C(O)CCCC(=O)Nc1ccc(F)cc1F	103	4	104	100
CNc1ccccc1C(=O)NC1CCCCC1	104	-9	112	94
CC(NS(=O)(=O)c1ccc(Br)cc1)C(=O)Nc1nc2ccccc2[nH]1 (stereo unspecified)	/	-6	78	91
Cc1ccccc1S(=O)(=O)Cc1ccc(C(=O)N2CCN(c3ccccc3)CC2)o1	106	-6	92	81
CN(C(=O)C1(c2cccs2)CCOCC1)c1ccccc1	103	8	115	99
CS(=O)(=O)N1CCC(N2CCN(Cc3ccccc3)C(=O)C2=O)CC1	105	/	86	92
Brc1cccc([C@@H]2C[C@H](c3ccccc3)n3nnnc3N2)c1	96	-26	/	/
COc1ccc(N2CCN(C(=O)CNC(=O)Cn3c(C)cc4ccccc4c3=O)CC2)cc1	96	/	130	94
Cn1c(-c2ccccc2)c(C(=O)Cn2cnc3sccc3c2=O)c2ccccc21	/	-29	90	86
CCN(CCO)C(=O)CCN1C(=O)/C(=C\c2ccco2)SC1=S	116	-119	77	79
COC(=O)c1c(NC(=O)/C=C/c2ccc(OC)cc2)sc(C)c1C	101	/	99	96
CC1=NNC(=O)C1C(c1cccc(F)c1)C(C#N)C#N (stereo unspecified)	104	-9	106	115
Cn1nccc1C(=O)N1CCCC1c1ccc(F)cc1 (stereo unspecified)	110	17	/	/
O=C(O)c1ccc(N2CCN(c3ncccn3)CC2)c(NC(=O)c2ccc(Cl)cc2)c1	97	-9	/	/
CN(C(=O)COc1ccc(-c2nnco2)cc1)C1CCCc2ccccc21 (stereo unspecified)	/	-10	114	95
Cc1ccc(CNC(=O)c2ccc(-c3nc(CS(=O)c4ccccc4)c(C)o3)cc2)cc1 (stereo unspecified)	102	/	123	88
COCCNC(=O)C1(C)Cn2nc(-c3ccccc3)cc2C(=O)N1c1ccc(F)cc1C (stereo unspecified)	97	-5	/	/
Cn1c(CCNC(=O)c2ccco2)nc2cc(NC(=O)COc3ccc(Cl)cc3)ccc21	100	4	95	94
Cc1c(C(=O)NCc2cccnc2)oc2ccc3c(c12)C(=O)CC1(CCCC1)O3	106	-42	115	52
N#CCCN(C(=O)c1ccc2c(=O)n3c(nc2c1)CCCC3)c1ccccc1	96	/	124	86
Cc1cccc(-c2nc(SCC(=O)NCc3ccco3)c3c(=O)n(C)c(=O)n(C)c3n2)c1	98	/	85	89
COc1ccc(-c2noc(-c3ccccc3OCC(=O)NC3CCCC3)n2)cc1	100	-26	/	/
CCn1cc(NC(=O)NCC2CCCCC2)c(=O)c2ccc(C)nc21	95	-13	84	73
CCCNCC1C(Oc2ccc(Cl)cc2)C(=O)N1c1ccccc1C (stereo unspecified)	101	-21	/	/
COc1cccc(C2CC(c3ccccc3)=NN2S(=O)(=O)c2ccc(C)cc2)c1OC (stereo unspecified)	161	-9	/	/
COC(=O)c1ccc(CSc2nnc(-c3ccc(F)cc3)c3ccccc23)o1	/	-24	78	90
CCOC(=O)c1cnc(SC)nc1NC(=O)Nc1cccc(OC)c1	105	3	97	107
O=c1c2oc3ccccc3c2n(Cc2ccccc2Cl)c(=O)n1Cc1ccco1	98	/	97	87
CCOC(=O)c1ccc(N=Cc2ccccc2O)cc1	/	-4	85	83
C/C(=N\OCCN1CCCCC1)C1COc2ccccc2O1 (stereo unspecified)	100	-28	79	80
CC(Cc1c[nH]c2ccccc12)N1C(=O)CCC1=O (stereo unspecified)	99	4	109	87
COc1cc(/C=C2\SC(=S)N(CC(=O)Nc3ccccc3[N+](=O)[O-])C2=O)cc(OC)c1OC	98	-30	/	/
O=C(NCCn1c(-c2ccccc2)nc2cccnc21)c1ccc(Br)cc1	107	-18	/	/
NC(=O)C1CCN(C(=O)c2cccs2)CC1	/	-6	91	85
Cc1nc(N2CCCC2)ncc1C(=O)NCc1ccc(F)cc1	106	/	90	90
CCN(CC)C(=O)Cn1cc(SCC(=O)Nc2ccccc2F)c2ccccc21	105	/	108	105
CCOC(=O)c1sc2cc(OC)ccc2c1Cl	/	6	138	138
CCOc1ccccc1CNC(=O)CCc1cn(Cc2ccc(Cl)cc2)c2ccccc12	108	/	118	98
Cc1noc2ncnc(NCc3ccc(Cl)cc3)c12	104&100	4	119	104
CCOC(=O)CSc1nnc(-c2ccccc2)c(=O)n1-c1ccccc1	104	4	105	89
O=S(=O)(CCSCc1csc2ccccc12)c1ccc(Cl)cc1Cl	104	5	110	95
COc1cccc(CC(=O)NC2CCN(c3ncc(C(F)(F)F)cc3Cl)CC2)c1	101	-4	99	94
Cn1c(CNc2nc(-c3ccccc3)cs2)nnc1SCC(=O)OC1CCCCC1	104	-37	127	78
Cc1ccc(Cn2c(Cc3ccccc3)nc3ccccc32)cc1	100	1	79	59
O=c1c2ccccc2nc(SCc2cccc(F)c2)n1C1CC1	101	/	91	83
Oc1[nH]c2ccccc2c1C=Nc1ccc2cn[nH]c2c1	97	-16	122	115
CC(Oc1ccccc1)C(=O)Nc1ccccc1C(=O)N1CCOCC1 (stereo unspecified)	100	-12	118	102
CC1(C)C(c2ccccc2)=[N+]([O-])C(C(=O)O)N1O (stereo unspecified)	97	-3	103	108
Cc1nnsc1C(=O)NC(=O)Nc1ccc(F)c(Cl)c1	101	-36	84	81
O=c1cc(Nc2ccc(F)cc2)c2ccccc2o1	97	2	100	80
CCSc1nc2ccccc2c(=O)n1C	105	-8	92	76
Cn1ccnc1SCc1nc2ccccc2c(=O)[nH]1	103	-18	96	90

Complete entries as entered above. Screens in order: GIV Gai3 FP | HCMV UL50-53 inh | Sa growth inh | Sa growth inh second temp
`Cc1ccc(Cn2c(Cc3ccccc3)nc3ccccc32)cc1` as listed: 100 | 1 | 79 | 59
`COc1cccc(CC(=O)NC2CCN(c3ncc(C(F)(F)F)cc3Cl)CC2)c1` as listed: 101 | -4 | 99 | 94

Continued:
Structure	GIV Gai3 FP	HCMV UL50-53 inh	Sa growth inh	Sa growth inh second temp
NC(=O)COc1ccc(S(=O)(=O)N2CCc3ccccc32)cc1	99	-5	108	97
Cc1ccc(C)c(NC(=O)Cn2c(=O)n(CCC(=O)NCc3ccc4c(c3)OCO4)c(=O)c3ccccc32)c1	100	-22	109	88
COc1ccc(CNc2ncnc3c2nc2n3CCCC2)cc1	112	/	77	82
CC(C)CCN(C(=O)Cn1c(=O)oc2ccccc21)c1c(N)n(Cc2ccccc2)c(=O)[nH]c1=O	/	-3	101	102
c1ccc(Nc2c(-c3ccc(N4CCOCC4)cc3)nc3ccccn23)cc1	95&106	-14	108	88
Cc1nc2nc[nH]n2c(=O)c1NS(=O)(=O)c1ccc(Br)cc1	104	-5	90	91
O=C(CSc1nc2ccccc2c(=O)[nH]1)N1CCOCC1	/	-6	106	91
N=Nc1c(O)n(Cc2ccccc2)c2ccccc12	/	-62	80	89
CCC1=NN(C(=O)COc2ccc(Cl)c(C)c2)C(O)(C(F)(F)F)C1 (stereo unspecified)	101	/	86	101
O=C(CSc1nc2ccccc2o1)NCC1CCCO1 (stereo unspecified)	101	-23	100	92
CC1=C(C(=O)Nc2ccccc2F)C(c2ccc3c(c2)OCO3)C2=C(CC(c3ccccc3)CC2=O)N1 (stereo unspecified)	106	5	/	/
Cc1ccc(CNC(=O)C2CSC3(C)CCC(=O)N23)cc1 (stereo unspecified)	/	2	115	94
O/N=C1/CCCc2occc21	109	15	101	98
Cc1nn(-c2ccc(N3CCCCC3)nn2)c(C)c1CCC(=O)NCc1ccccc1F	97	/	90	101
N#CCCN(Cc1cccs1)S(=O)(=O)c1ccc2c(c1)CCO2	101	-4	99	92
N#CC1=C2CCCCC2C(c2cccc(Br)c2)C(C#N)(C#N)C1=O (stereo unspecified)	/	-4	63	77
Cc1ccc2[nH]c3c(=O)n(CCN4CCCCC4C)cnc3c2c1 (stereo unspecified)	98	/	93	85
O=C(Cn1c(=O)nc(-c2ccccc2)c2cc(Cl)ccc21)NC1CCCC1	104	-45	/	/
O=c1oc(-c2ccccc2Cl)nc2sc3c(c12)CCC3	107	-20	/	/
COc1ccc(C2CC(C(F)(F)F)n3nc(C(=O)NCc4cccs4)c(Cl)c3N2)cc1OC (stereo unspecified)	99	-10	/	/
Clc1ccc2c(c1)-n1cc(-c3ccccc3)nc1CO2	109	17	84	90
CCC(C)N1C(=O)C2C(C(=O)Nc3cccc(Cl)c3)C3C=CC2(O3)C1C(=O)NC1CCCCC1 (stereo unspecified)	106	/	114	84
COC(=O)c1ccc(NC(=O)COc2cccc3ccc(N4CCC(C(N)=O)CC4)nc23)cc1	101	-32	/	/
Cc1ccc(C(=O)c2ccc(C)cc2)cc1	/	-21	90	86
O=C(CSc1nc2ccccc2o1)c1ccc(Cl)cc1	104	-20	102	84
Cc1ccc2[nH]c(=O)c(-c3noc(CCC(=O)N4CCCC4)n3)cc2c1	107	-81	/	/
CN1CCN(C(=O)c2ccc(COc3cc(Cl)ccc3Cl)o2)CC1	103	-32	89	84
CNc1nc(SCc2ccc(C#N)cc2)nc2ccccc12	/	-3	99	69
O=C(NCCc1ccc(Cl)cc1)C(c1ccccc1)c1ccccc1	/	2	101	119
CCc1ccc(CN(C)CC(=O)N(C)c2c(N)n(Cc3ccccc3)c(=O)[nH]c2=O)cc1	/	-28	98	95
Clc1nc(-c2ccccc2)nc2sc3c(c12)CCCC3	/	4	112	85
COc1cc(=O)n(-c2ccc(F)cc2)nc1C(=O)Nc1cc(Cl)ccc1O	104	-30	/	/
CC(C)NC(=O)C1c2ccccc2C(=O)N(C)C1c1cccs1 (stereo unspecified)	101	-15	90	88
COc1ccc(C=NCC2OCCc3ccccc32)cc1OC (stereo unspecified)	107	/	108	112
COc1cc(OC)cc(-c2noc(CSc3nc4ccsc4c(=O)[nH]3)n2)c1	102	-33	/	/
COc1ccccc1NC(=O)c1sc2nc3c(cc2c1N)CCCCCC3	104	-22	101	94
CCOC(=O)c1[nH]c2ccccc2c1NC(=O)c1ccccc1OC	105	2	100	68

Copied from the listing (6 entries):
Structure	GIV Gai3 FP	HCMV UL50-53 inh	Sa growth inh	Sa growth inh second temp
COc1cc(=O)n(-c2ccc(F)cc2)nc1C(=O)Nc1cc(Cl)ccc1O	104	-30	/	/
CC(C)NC(=O)C1c2ccccc2C(=O)N(C)C1c1cccs1 (stereo unspecified)	101	-15	90	88
COc1ccc(C=NCC2OCCc3ccccc32)cc1OC (stereo unspecified)	107	/	108	112
COc1cc(OC)cc(-c2noc(CSc3nc4ccsc4c(=O)[nH]3)n2)c1	102	-33	/	/
COc1ccccc1NC(=O)c1sc2nc3c(cc2c1N)CCCCCC3	104	-22	101	94
CCOC(=O)c1[nH]c2ccccc2c1NC(=O)c1ccccc1OC	105	2	100	68
